# Bioassay records: PubChem BioAssay, several laboratories
# Beta2AR agonist – beta2AR agonists driving receptor internalization, primary screen, cell-based, FAP fluorogen, flow cytometry; Am2.2-beta2AR cells; reference of the scale not given here; response, % (test concentration not listed); 340,000 tested, 0.43% active;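 active means response above a set limit, near 3 SD of response in nonfluorescent compounds, cut at about 42% in these data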;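 further: stock transfer was 100 nL into about 11 µL; a reference agonist was the positive control; negative values mostly stem from fluorescent compounds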
# Target sequence (P07550 whole entry, looked up): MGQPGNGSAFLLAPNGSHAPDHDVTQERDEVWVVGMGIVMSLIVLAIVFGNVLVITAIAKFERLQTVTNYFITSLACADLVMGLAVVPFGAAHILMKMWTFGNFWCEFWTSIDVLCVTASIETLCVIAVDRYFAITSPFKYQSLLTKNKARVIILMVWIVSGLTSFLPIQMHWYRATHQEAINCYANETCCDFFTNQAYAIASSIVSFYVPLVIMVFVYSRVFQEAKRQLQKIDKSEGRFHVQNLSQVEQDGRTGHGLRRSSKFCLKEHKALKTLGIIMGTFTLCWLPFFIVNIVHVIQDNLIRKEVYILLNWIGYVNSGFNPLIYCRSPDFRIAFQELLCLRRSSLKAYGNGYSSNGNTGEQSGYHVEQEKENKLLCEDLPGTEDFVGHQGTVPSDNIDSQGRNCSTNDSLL
# Ecoli rRNA inh – reduced GFP signal of wild-type E. coli, primary screen, bacterial rRNA inhibitor project, GFP/RFP fluorescence, OD600, single point; AID 720706, 2013; 350,000 tested, 1.6% active; E. coli WT GFP vs humanized-ribosome RFP mutants, 24 h; stronger effect = lower value; DMSO median 0, no signal -100; GFP signal change (wild-type ribosome), % (test concentration not listed);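 active means significant combined selectivity score with lowered wild-type GFP, culture density cut under 30%, mutant RFP and density less affected; inactive means any of these conditions unmet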; further: one replicate is shown; some compounds called inactive have numbers as strong as hits
# LANA-H2A inh – blockers of LANA interaction with H2A/H2B – biochemical, FP readout, HTS, primary screen; Protein LANA1 (Human herpesvirus 8 type P (isolate GK18)), Q9QR71; cell-free LANA-H2A/H2B peptide, fluorescence polarization; inhibition, % (no concentration beside the values); 320,000 tested, 0.6% active; AID 2629, 2010; in the data active means inhibition mostly above about 10%, no sharp cut-off; inactive means mostly below about 6.7%;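 further: stock transfer was 7.5 nL into about 10 µL; 0% = median of vehicle wells and 100% = median of positive control wells; one replicate is shown; the record names a cut of 25% in any replicate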
# Bfl-1 A1 inh – caspase 3/7 activation in MEF A1-2A-BIM cells, primary screen, A1 inhibitor project, cell-based, luminescence, HTS | caspase activation, % (concentration not given with the values) | 330,000 tested, 0.066% active | Caspase-Glo 3/7 luminescence, 3 h; percent of clofoctol response, vehicle zero | AID 2462, 2010;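 active means over half of replicate activation scores above 10%, or exactly half above 10 with the replicate mean above 10; inconclusive means replicate mean below 10 yet half the replicates above 10; inactive means over half of replicates below 10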;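 further: wells of about 30 µL received 50 nL stock; many hits fall short of the cut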
# Calb FLC – C. albicans growth inhibition with fluconazole, primary screen, CaCi-2 strain, Alamar Blue fluorescence; C. albicans CaCi-2 (fluconazole-resistant clinical isolate) + fluconazole, 48 h; growth inhibition, % (test concentration not listed); 300,000 tested, 0.57% active; AID 1979, 2009;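 active means most replicates above 75%; inconclusive means exactly half above 75%; inactive means most below 75%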;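 further: all wells also contain fluconazole at 8 µg/ml as a sub-toxic cotreatment; 0% = median of DMSO wells and 100% = median of geldanamycin control wells; wells of about 8 µL received 7.5 nL stock; the first replicate is given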
# T cruzi repl – inhibitors of intracellular T. cruzi growth, primary screen, luminescence, NIH3T3 host cells. T. cruzi beta-gal in NIH3T3, 90 h. inhibition, % (concentration not given with the values). 300,000 tested, 1.4% active;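 active means mean inhibition across valid replicates above about 55%, limit read from the data; inconclusive means mean below that limit but half or more replicates reach it; inactive means mean below it, under half of replicates reach it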;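 further: signal also drops with host cell toxicity which is not excluded here; 0% = plate median of DMSO wells and 100% = zero luminescence signal; higher percent means less beta-gal luminescence so fewer parasites; stock transfer was 50 nL into about 50 µL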
# ALR H2O2 inh – inhibitors of human ALR sulfhydryl oxidase, primary screen, biochemical, H2O2 detection, HRP-luminol luminescence, single point. FAD-linked sulfhydryl oxidase ALR (Homo sapiens), P55789. purified ALR, DTT oxidation. inhibition, % (concentration not given with the values). 290,000 tested, 3.8% active. AID 485317, 2010;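 active means mean and each replicate at 75% or more; inconclusive means only one of the two met; inactive means neither met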;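 further: stock transfer was 7.5 nL into about 7.5 µL; 0% = neutral wells and 100% = wells with inactivated enzyme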
# Target sequence (P55789 whole entry, looked up): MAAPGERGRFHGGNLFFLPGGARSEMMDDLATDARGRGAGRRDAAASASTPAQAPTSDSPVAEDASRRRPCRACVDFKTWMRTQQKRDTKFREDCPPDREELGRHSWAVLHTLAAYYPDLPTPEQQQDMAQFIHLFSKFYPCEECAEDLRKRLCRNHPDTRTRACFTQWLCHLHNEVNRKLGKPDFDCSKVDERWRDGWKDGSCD
# Beta cell apopt – inhibitors of cytokine-induced beta cell apoptosis, primary screen, luminescence | INS-1E cytokine-induced death, ATP luminescence, 48 h; percent of positive-control rescue, neutral wells zero | AID 435005, 2010 | 300,000 tested, 0.8% active | protection from apoptosis, % (no concentration beside the values);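 active means all replicates at 75% or more, or half of them and the mean; inconclusive means half reach 75% but not the mean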;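 further: 0% = cytokine-treated negative control wells and 100% = positive control rescue; higher means more ATP so stronger rescue from cytokine killing; wells of about 40 µL received 100 nL stock; the first replicate is given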
# Ecoli rRNA inh OD600 – also measured in Ecoli rRNA inh; calls as there; OD600 change, %; measured here: OD600 growth;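 optical density of the mix in the first replicate; 0 = DMSO median and -100 = no signal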
# Ecoli rRNA inh RFP – second read-out of Ecoli rRNA inh, no call of its own (marks repeat the call); RFP signal change, %; measured here: RFP humanized mutant strains;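 first replicate; 0 = DMSO median and -100 = no signal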
# Starred values were filed as active, the others as inactive; ? = inconclusive; . = no result given.
SMILES,Beta2AR agonist,Ecoli rRNA inh,Ecoli rRNA inh OD600,Ecoli rRNA inh RFP,LANA-H2A inh,Bfl-1 A1 inh,Calb FLC,T cruzi repl,ALR H2O2 inh,Beta cell apopt
CC(=O)OC1C(OC(C)=O)N(C(C)=O)C(=O)N1C(C)=O (stereo not drawn),5,.,.,.,7.4,0.7,-5,-2,6,4
COCCn1ccc(O)c(Cc2ccc(Cl)cc2)c1=O,14,.,.,.,-5.7,-0.2,-5,-4,-7,2
COc1cccc(NC(=O)c2nnn(CC(=O)Nc3cc(C)cc(C)c3)c2N)c1,5,1,2,-1.1,1.1,0.1,-1,7,-4,.
OC(COc1ccc2ccccc2c1)Cn1ccnc1 (stereo not drawn),-3,.,.,.,2.9,0.3,-2,48,-17,.
OCCN(CCO)Cc1ccc(Br)cc1,11,11,10,-1.4,-0.6,-0.5,-4,-10,-4,-2
Nc1nc2ccc(-c3nc4ccccc4o3)cc2s1,-8,.,.,.,0.4,-4.1,-2,4,97*,7
CSc1ccc(S(=O)(=O)N2CCC(C(=O)NC3CC3)CC2)cc1,13,6,7,2.8,4.0,0.1,-5,7,-6,0
CCCSc1nnc2c(n1)OC(c1cccn1C)N(C(C)=O)c1ccccc1-2 (stereo not drawn),-6,.,.,.,-1.7,-0.5,2,1,-1,7
N#Cc1ccccc1OCC(=O)N(C1CCCCC1)C1CCS(=O)(=O)C1 (stereo not drawn),-1,8,9,-0.6,2.8,0.5,-3,-11,-20,1
CC(Sc1nc2c([nH]c3ccccc32)c(=O)n1C)c1ccccc1 (stereo not drawn),-2,18,22,1.6,-4.8,0.8,7,12,.,8
CCOc1ccc(NC(=O)Cn2cncc2-c2ccc([N+](=O)[O-])cc2)cc1,-3,-1,13,0.4,5.6,0.3,40,8,-3,1
CCN(CC)CCN(CC(=O)N(C1CCCCC1)C1CCCCC1)C(=O)c1ccco1,-1,-3,1,0.9,3.9,0.6,16,16,-1,9
COc1ccc(NC(=O)c2cc3ccccc3cc2O)cc1,18,-4,5,-2.9,-3.2,-3.4,18,18,3,-11
CC1CCCC(C)N1C(=O)Cn1cc(C#N)c2ccccc21 (stereo not drawn),-1,9,2,-2.1,-1.5,1.5,-36,2,-8,.
CCOc1cc(NS(=O)(=O)CC)c(OCC)cc1NC(=O)c1ccco1,-8,.,.,.,0.5,0.3,34,3,4,-2
C/C(=N\Nc1cc(C)nc(-c2ccccc2O)n1)c1ccccc1O,-2,1,-6,-3.9,-7.4,-0.4,?,35,.,-2
Cc1nc(N2CCC(C)CC2)c2c(C)c(C(=O)Nc3cc(F)ccc3C)sc2n1,11,2,15,0.8,0.8,0.4,1,50,-8,14
O=C(NC1(C(F)(F)F)C(=O)Nc2c1c(=O)[nH]c(=O)n2-c1ccc(F)cc1)c1cccnc1 (stereo not drawn),-7,.,.,.,-2.0,0.3,-4,-14,15,-2
Cc1cc(C)n2c(=S)[nH]nc2n1,7,.,.,.,-2.8,0.6,-3,-2,.,-8
CCCC1NC(=S)NC(C)=C1C(C)=O (stereo not drawn),6,4,9,2.9,0.5,0.0,-15,-11,12,-3
O=C(CSc1nnc(-c2ccccc2Br)o1)N1CCN(C(=O)c2ccco2)CC1,-13,-4,-6,-1.1,-7.2,1.1,-14,5,-1,2
Cc1nnsc1-c1c(C(=O)N2CCOCC2)c(C)nn1-c1ccc(Cl)cc1,2,.,.,.,-3.8,-0.5,-13,-6,-14,-4
Cc1cc(=O)oc2cc(OCC(=O)Nc3ccc(N4CCC(C)CC4)cc3)ccc12,51*,-4,-2,8.6,2.5,0.3,-6,33,-17,9
O=C1CCCN1CC(O)CS(=O)(=O)c1ccc(Cl)cc1 (stereo not drawn),0,.,.,.,3.0,1.2,-18,-11,0,-5
CCOc1ccccc1OCCn1ncc2ccc(OC)c(OC)c2c1=O,-3,.,.,.,0.0,1.3,3,10,-11,-2

# For convenience, four of the compounds above:
SMILES,Beta2AR agonist,Ecoli rRNA inh,Ecoli rRNA inh OD600,Ecoli rRNA inh RFP,LANA-H2A inh,Bfl-1 A1 inh,Calb FLC,T cruzi repl,ALR H2O2 inh,Beta cell apopt
CC(=O)OC1C(OC(C)=O)N(C(C)=O)C(=O)N1C(C)=O (stereo not drawn),5,.,.,.,7.4,0.7,-5,-2,6,4
COCCn1ccc(O)c(Cc2ccc(Cl)cc2)c1=O,14,.,.,.,-5.7,-0.2,-5,-4,-7,2
COc1cccc(NC(=O)c2nnn(CC(=O)Nc3cc(C)cc(C)c3)c2N)c1,5,1,2,-1.1,1.1,0.1,-1,7,-4,.
OC(COc1ccc2ccccc2c1)Cn1ccnc1 (stereo not drawn),-3,.,.,.,2.9,0.3,-2,48,-17,.

# The results go on:
SMILES,Beta2AR agonist,Ecoli rRNA inh,Ecoli rRNA inh OD600,Ecoli rRNA inh RFP,LANA-H2A inh,Bfl-1 A1 inh,Calb FLC,T cruzi repl,ALR H2O2 inh,Beta cell apopt
Cc1cccc(NS(=O)(=O)c2ccc3nc(-c4ccccc4)[nH]c3c2)c1C,-16,.,.,.,0.0,-0.5,6,-1,7,6
COc1ccc(C(=O)Nc2cc(C(F)(F)F)ccc2-n2cncn2)cc1,-23,.,.,.,-6.3,0.3,20,7,2,-2
Cn1nc([N+](=O)[O-])nc1Sc1cccc2cccnc12,7,6,-9,-4.7,1.6,0.4,-1,65*,-22,94*
O=C(NCCc1ccccn1)c1ccc2nc(Cc3ccccc3F)oc2c1,-5,-6,-7,-4.6,2.4,-1.7,22,4,-1,5
CCCCn1c(N)c(N(Cc2ccccc2OC)C(=O)C(C)C)c(=O)[nH]c1=O,0,4,6,0.2,0.2,0.1,5,-14,2,-2
CCOP(=O)(OCC)c1nc(-c2ccc(C)cc2)oc1N1CCOCC1,8,.,.,.,1.3,-0.8,7,-6,.,3
CC1Sc2ccc(S(=O)(=O)N3CCC(C(=O)N(C)Cc4ccco4)CC3)cc2NC1=O (stereo not drawn),3,-5,-9,0.3,0.5,-0.3,9,2,-13,1
CCOc1ccc2nc(COC(=O)c3ccco3)c(C(C)=O)[n+]([O-])c2c1,3,.,.,.,-1.9,0.1,-1,15,1,-4
Cc1cccc(C(=O)OCC(=O)Nc2ccccc2C(=O)NC2CC2)c1,-8,4,12,-0.9,-8.4,-0.5,.,.,2,-2
CCn1c(C)c(C(C)=O)cc(C#N)c1=O,-5,8,9,-1.7,-1.6,-0.7,-24,-21,.,-8
O=C(NCc1ccccc1CN1CCCC1)c1cccc(S(=O)(=O)N2CCOCC2)c1,4,14,17,1.8,-1.7,-0.3,.,.,-14,-1
NC1=NC[C@H](c2ccccc2)N1CC1CCCCC1,-1,1,-4,-9.3,0.4,?,-37,18,-2,-2
Oc1cnn(-c2ccccc2)c1,0,.,.,.,1.0,0.3,0,-5,.,1
O=C(CSc1ccccn1)Nc1ccc2c(c1)CCC2,-3,-4,-16,3.2,1.0,0.9,-10,-1,-2,-7
COC(=O)C1=C(C)NC(=S)NC1c1ccc(OCC(=O)N2CC(C)OC(C)C2)c(OC)c1 (stereo not drawn),0,4,9,-0.3,-1.2,-1.0,.,.,.,1
CCCOc1ccc(-c2c(C(=O)N/N=C/c3ccsc3)nnn2-c2nonc2N)cc1,-4,8,7,2.8,-1.6,-1.3,3,-1,.,14
Cc1ccc(C)c(OCCSc2nnc(C)c(=O)[nH]2)c1,4,-34,-31,-4.7,-5.2,-0.4,3,-12,14,3
Cc1nnc(NC(=O)c2ccc(C)c(S(=O)(=O)N3CCOCC3)c2)s1,-3,.,.,.,-0.7,0.0,7,-10,.,-5
O=C(Nc1ccc(Cl)cc1)c1cc(S(=O)(=O)Nc2ccccn2)ccc1Cl,8,1,0,-1.6,2.6,0.0,-1,5,.,-7
COc1ccccc1P(=O)(Cc1ccccc1[N+](=O)[O-])c1ccccc1 (stereo not drawn),5,-10,-13,5.5,4.4,0.0,6,10,1,-9
COCCCNC(=O)c1cc(-c2cccnc2)nc2ccccc12,6,4,10,-1.9,-2.9,-0.1,1,3,-7,-2
S=C(NCc1ccccc1)NCc1ccco1,5,-2,0,-0.5,1.9,0.4,-9,-28,0,-6
O=C1CC(N(O)C2CC(=O)N(Cc3ccccc3)C2=O)C(=O)N1Cc1ccccc1 (stereo not drawn),4,.,.,.,-0.8,0.0,7,-17,.,-5
S=C1NC2=C(CCCC2=C2SCCS2)C(c2ccccc2)N1 (stereo not drawn),22,1,14,2.6,-0.5,0.6,18,28,8,-21
COc1cccc(C2c3c(-c4cc(Cl)c(C)cc4O)n[nH]c3C(=O)N2Cc2cccnc2)c1 (stereo not drawn),-2,.,.,.,-4.6,-1.1,17,0,-9,19

# (more compounds)
SMILES,Beta2AR agonist,Ecoli rRNA inh,Ecoli rRNA inh OD600,Ecoli rRNA inh RFP,LANA-H2A inh,Bfl-1 A1 inh,Calb FLC,T cruzi repl,ALR H2O2 inh,Beta cell apopt
CSc1ccc(/C=N/n2c(C3CCCCC3)n[nH]c2=S)cc1,.,-12,-5,1.6,7.1,-6.8,27,6,4,-1
CC1(C)c2ccccc2N2CC(=O)NC21/C=C/c1ccco1 (stereo not drawn),11,.,.,.,-0.3,0.5,-18,11,-10,-17
O=c1cc(CN2CCN(c3ccccn3)CC2)nc2sccn12,-3,20,15,4.7,-3.7,0.4,-6,-1,-2,4
O=C(N/N=C/c1ccccc1OC(F)F)C1=COCCO1,3,8,11,2.4,3.7,0.9,-29,-17,-5,-1
O=C(O)CNC(=S)N(Cc1cccs1)C1CCCCC1,3,.,.,.,-1.1,1.1,-2,-6,.,-20
O=C1NC[C@@H](c2ccccc2)OC(=O)[C@H](Cc2ccc(F)cc2)C/C=C\C[C@@H]1CC(=O)N(CCO)Cc1ccccc1,3,-14,-29,1.0,1.8,0.4,.,.,-2,0
CCC(CC)c1nnc(NC(=O)Cc2ccccc2[N+](=O)[O-])s1,0,-8,-9,2.6,-2.6,0.6,-25,-12,2,-1

# Another view of part of the listing above:
# Order of values – Beta2AR agonist	Ecoli rRNA inh	Ecoli rRNA inh OD600	Ecoli rRNA inh RFP	LANA-H2A inh	Bfl-1 A1 inh	Calb FLC	T cruzi repl	ALR H2O2 inh	Beta cell apopt
CC1(C)c2ccccc2N2CC(=O)NC21/C=C/c1ccco1 (stereo not drawn)
  11	.	.	.	-0.3	0.5	-18	11	-10	-17
CCC(CC)c1nnc(NC(=O)Cc2ccccc2[N+](=O)[O-])s1
  0	-8	-9	2.6	-2.6	0.6	-25	-12	2	-1

# Only part of the results is shown; the hit share may differ from the screen's.
